Screening data from PubChem BioAssay.
LT uptake inh = qHTS Assay for Anthrax Lethal Toxin Internalization | Cells, anthrax lethal toxin internalization, FRET ratio (460/530) | Potency, µM (series often up to 40 µM), inactives show at the top dose activity change, negative = inhibition, hits mostly inhibitors | actives 0.67% (n = 70,000); active = well fitted falling ratio curve with the 530 nm signal flat; inconclusive = other ratio curves, or a change in one channel alone; inactive = flat curves in the ratio and both channels; the % refers to the ratio; note: % is set by controls: 0 for no effect and ±100 for the full control effect; nearly all actives have a fitted effect of over 50% in size; tested in ME-180 cells; beta-lactamase reporter
Prx2 Sm inh = Schistosoma Mansoni Peroxiredoxins (Prx2) | Schistosoma mansoni peroxiredoxin 2 (Prx2) | S. mansoni Prx2 activity coupled to TGR/GSH (TGR is thioredoxin glutathione reductase), NADPH fluorescence loss, qHTS; some inactives read as strong as hits | Potency, µM | actives 0.07% (n = 65,000); active means full or partial inhibition curve with a strong effect at the top dose; inconclusive means weaker partial or single-point curve; inactive means no accepted curve; note: series up to 57 µM; many of its hits are not listed in these tables
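qHTS, coupled TGR/Prx2 format; 15 min compound preincubation at RT; reaction started with H2O2 (2.5 mM aliquot); kinetic NADPH fluorescence decrease, ex 365/em 450 nm.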
* = called active by the depositor; ? = inconclusive; . = not tested or not shown; [ ] = dose if it differs, or a comment. Potency is the fitted concentration of half-maximal effect.

SMILES | LT uptake inh | Prx2 Sm inh
COc1ccc(C(=O)N2CCC3(CCCN(c4cccc(-c5ccccc5)c4)C3)CC2)cc1 | -20% | >57
COCC(=O)N1CCC2(CC1)CN(c1ccc(-c3ccccc3)cc1)C2 | -7% | >57
CC(=O)SCCC(=O)N1C(C)CCCC1C(=O)O (configuration not stated) | 8% | .
CC1CCCC(C)N1S(=O)(=O)c1ccc(NC(=O)CNCC2CCCO2)cc1 (configuration not stated) | 9% | ?
O=C(NCc1ccccc1)c1cc(S(=O)(=O)N2CCOCC2)ccc1F | ? | >57
COc1ccc(CN2CCC(CNC(=O)NC3CCCCC3)CC2)cc1 | -16% | >57
O=C(Nc1ccc2c(c1)OCO2)c1cccc2c1C(=O)N(Cc1cccnc1)C2 | -12% | >57
COc1ccc(Oc2ncc3nc(C)c(=O)n(-c4ccc(OC)cc4)c3n2)cc1 | -18% | >57
Cc1ncoc1C(=O)Nc1ccccc1-c1ccccc1 | -1% | >57
Cc1ccc(S(=O)(=O)c2ccc(Cl)cc2)cc1S(=O)(=O)N1CCOCC1 | ? | >57
COc1cc(OC)c(CN2CCN(c3ccc(F)cc3)CC2)cc1Br | ? | >57
NC(=O)CSc1nc2ccccc2n1Cc1ccccc1F | 11% | >57
N=c1n(CCN2CCOCC2)c2ccccc2n1CC(O)COc1ccccc1 (configuration not stated) | -14% | >57
Cc1cc2ccccc2n1CCNC(=O)C1CCCC1 | -5% | >57
COc1ccc(OCC(=O)Nc2ccc(NC(=O)c3ccco3)cc2)cc1 | -11% | >57
CCN1C(=O)/C(=C\N2CCCc3ccccc32)SC1=S | 1% | >57
C=CC(C)n1c(Br)nc2c1c(=O)[nH]c(=O)n2C (configuration not stated) | -8% | >57
O=C(Nc1ccc2c(c1)OCO2)C1CCCN(S(=O)(=O)Cc2ccccc2)C1 (configuration not stated) | -5% | >57
Cc1ccccc1C#N | -14% | .
NC(=O)c1c(N)sc(=S)n1-c1ccccc1 | -1% | >57
COc1ccc(CCN(CC(=O)NC2CCCC2)C(=O)CCC(=O)Nc2cc(C)on2)cc1OC | 6% | >57
O=C(COc1ccc2ccccc2c1)N1CCCC1 | -8% | >57
Cc1ccc(CCNC(=O)C2CCCN(c3nc4ccccc4o3)C2)cc1 (configuration not stated) | -8% | >57
COc1ccc(-c2nnc3sc(CN4C(=O)c5ccccc5C4=O)nn23)cc1 | . | >57
CCN(CC(=O)Nc1ccccc1C(=O)OC)S(=O)(=O)c1ccccc1 | -19% | >57
CC(=O)Nc1ccc(S(=O)(=O)N2CCN(C(=O)Cc3ccccc3)CC2)cc1 | 10% | >57
Cc1ccc(-n2ncc3c2ncn2c(C)nnc32)cc1C | -11% | >57
CC1=C(C(=O)N(C)Cc2ccccc2)C2(CCC(C)CC2)OC1=O (configuration not stated) | -16% | >57
CCC(=O)NCCc1cc2ccc(C)cc2[nH]c1=O | 6% | >57
Cc1ccc(S(=O)(=O)Cc2ccc(C(=O)NCc3ccc4c(c3)OCO4)o2)cc1 | ? | >57
O=S(=O)(NCc1cccnc1)c1ccc(Cl)c(Cl)c1Cl | . | >57
N#CCCn1c(=O)c(-c2cc(F)cc(F)c2)nc2cnc(OCc3ccccc3)nc21 | -26% | >11
Cc1cc2ncn(S(=O)(=O)c3ccc(S(=O)(=O)N4CCOCC4)cc3)c2cc1C | -11% | >57
O=C(Nc1ccc2c(c1)OCO2)OCc1ccccc1 | -32% | >57
CCC(=NCc1ccc2c(c1)OCO2)c1c(O)n(C2CCCCC2)c(=O)[nH]c1=O | 2% | >57
O=C(c1ccccc1CCc1ccccc1)N1CCN(c2ccccn2)CC1 | -29% | >57
COCCCn1c(CCC(=O)O)ccc1-c1cccs1 | ? | .
CCOc1cc(C(=O)NCc2ccncc2)cc(OCC)c1OCC | ? | >57
C=C(C)COc1ccc(-c2[nH]ncc2Oc2ccccc2OCC)c(O)c1 | ? | >57
CCOC(=O)N1CCC(NC(=O)CCC(=O)N2CC(C)Oc3ccccc32)CC1 (configuration not stated) | 14% | >57
O=C(CCCCCn1c(=O)[nH]c2ccccc2c1=O)N1CCN(Cc2ccc3c(c2)OCO3)CC1 | ? | >57
CN(C)CCCN1c2ccccc2Sc2ccc3ccccc3c21 | -18%[8 µM] | >57
COCc1nnc(NS(=O)(=O)c2ccccc2)s1 | -9% | >57
COc1ccccc1C(=O)Nn1c(C2CCC2)nc2ccccc2c1=O | -7% | >57
O=C(Nc1cccc(-c2cnc3ccccc3n2)c1)c1ccco1 | -12% | >57
COC(=O)C1CC1C(NC(=O)[C@H]1CCCCN1)c1ccccc1 (some centres not stated) | -4% | >57
O=C(Oc1ccccc1)N1CCC2(CC1)CN(c1ccccc1)C2 | ? | >57
CCC1Oc2ccccc2N(CC(=O)NCCCN2CCC(C)CC2)C1=O (configuration not stated) | ? | >57
O=C(CN(Cc1ccccc1)C(=O)c1ccc2c(c1)OCCO2)NCc1ccc2c(c1)OCO2 | -1% | >57
Cc1cccc(N2CCN(C(=O)Cn3nc(Cc4ccncc4)c4ccccc4c3=O)CC2)c1C | -12% | >57
Cc1nnc(Oc2ccccc2)c2ccccc12 | ? | >57
c1ccc(Cn2nnnc2C(c2ccncc2)N2CCOCC2)cc1 (configuration not stated) | 0% | >57
O=C(Cc1ccccc1)N(c1ccc(F)cc1)C1C=CS(=O)(=O)C1 (configuration not stated) | -12% | >57
O=C(O)CC(NC(=O)OCc1ccccc1)c1ccccc1 (configuration not stated) | -7% | >57
CC1=C(C#N)C(C(F)(F)F)(C(F)(F)F)N=C(c2ccco2)N1 | -27% | >57
CCCCC(SCC(=O)Nc1ccccc1)C(=O)O (configuration not stated) | -26% | >57
COc1cc(S(=O)(=O)N(Cc2cccnc2)Cc2ccco2)ccc1-n1cnnn1 | 0% | >57
CCN(CCCNC(=O)CCCCn1c(=O)[nH]c2ccccc2c1=O)c1ccccc1 | 6% | >57
Clc1ccccc1-c1nc(-c2ccccc2)n[nH]1 | -4% | >57
COc1ccccc1-n1c(CNC(=O)c2ccco2)nnc1SCC(=O)Nc1ccc(F)cc1 | -5% | >57

18 neighbouring entries already listed:
SMILES | LT uptake inh | Prx2 Sm inh
CCOC(=O)N1CCC(NC(=O)CCC(=O)N2CC(C)Oc3ccccc32)CC1 (configuration not stated) | 14% | >57
O=C(CCCCCn1c(=O)[nH]c2ccccc2c1=O)N1CCN(Cc2ccc3c(c2)OCO3)CC1 | ? | >57
CN(C)CCCN1c2ccccc2Sc2ccc3ccccc3c21 | -18%[8 µM] | >57
COCc1nnc(NS(=O)(=O)c2ccccc2)s1 | -9% | >57
COc1ccccc1C(=O)Nn1c(C2CCC2)nc2ccccc2c1=O | -7% | >57
O=C(Nc1cccc(-c2cnc3ccccc3n2)c1)c1ccco1 | -12% | >57
COC(=O)C1CC1C(NC(=O)[C@H]1CCCCN1)c1ccccc1 (some centres not stated) | -4% | >57
O=C(Oc1ccccc1)N1CCC2(CC1)CN(c1ccccc1)C2 | ? | >57
CCC1Oc2ccccc2N(CC(=O)NCCCN2CCC(C)CC2)C1=O (configuration not stated) | ? | >57
O=C(CN(Cc1ccccc1)C(=O)c1ccc2c(c1)OCCO2)NCc1ccc2c(c1)OCO2 | -1% | >57
Cc1cccc(N2CCN(C(=O)Cn3nc(Cc4ccncc4)c4ccccc4c3=O)CC2)c1C | -12% | >57
Cc1nnc(Oc2ccccc2)c2ccccc12 | ? | >57
c1ccc(Cn2nnnc2C(c2ccncc2)N2CCOCC2)cc1 (configuration not stated) | 0% | >57
O=C(Cc1ccccc1)N(c1ccc(F)cc1)C1C=CS(=O)(=O)C1 (configuration not stated) | -12% | >57
O=C(O)CC(NC(=O)OCc1ccccc1)c1ccccc1 (configuration not stated) | -7% | >57
CC1=C(C#N)C(C(F)(F)F)(C(F)(F)F)N=C(c2ccco2)N1 | -27% | >57
CCCCC(SCC(=O)Nc1ccccc1)C(=O)O (configuration not stated) | -26% | >57
COc1cc(S(=O)(=O)N(Cc2cccnc2)Cc2ccco2)ccc1-n1cnnn1 | 0% | >57

Continued.
SMILES | LT uptake inh | Prx2 Sm inh
COC(=O)c1ccc2c(=O)n(CCCN3CCCC3=O)c(=S)[nH]c2c1 | ? | >57
COCCNC(=O)CSc1nc(-c2ccc(OC)c(OC)c2)cc(C(F)(F)F)n1 | -3% | >57
COc1ccc(N2C(=O)CCC(C(C)=O)=C2C)cc1 | 7% | .
COc1ccccc1N1CCN(c2ncnc3c2oc2ccccc23)CC1 | ? | >57
O=c1cccc2n1CC1CC2CN(Cc2cccc(Cl)c2Cl)C1 (configuration not stated) | -12% | >57
O=c1cc(O)nc(SCc2ccccc2)[nH]1 | 8% | >57
CCOC(=O)c1csc(NC(=O)c2cc(OC)c(OC)c(OC)c2)n1 | -19% | >57
Cc1ccc(NC2c3ncccc3C(=O)N2C2CCCCC2)cc1C (configuration not stated) | 9% | >57
COc1ccc(-n2c(=O)c(CCc3ccccc3)nc3cncnc32)cc1 | -8% | >57
CCOC(=O)CNC(=O)CSc1ncnc2c1cnn2Cc1ccccc1 | ? | >57
CC(=O)N=c1sc(C(C)(C)C)c(C)n1C | 1% | >57
COc1ccccc1CN1CCC2(CC1)CCN(S(C)(=O)=O)CC2 | 4% | >57
COc1cc(C2CC(=O)c3cnc(NC(=O)COc4ccccc4)nc3C2)cc(OC)c1OC (configuration not stated) | ? | >57
COc1ccc(OC)c(S(=O)(=O)N2CCN(C)CC2)c1 | 3% | >57
CCN1CCN(C(=O)C2CC(c3ccc(F)cc3)=NO2)CC1 (configuration not stated) | -7% | >57
Cc1ccc(C)c(SCC(=O)Nc2nnc(-c3ccccc3)o2)c1 | ? | >57
CCOC(=O)c1ccc2nc(NC(=O)c3cccs3)sc2c1 | -1% | >57
Cc1ccc2c(c1)-c1c(ssc1=S)C(C)(C)N2C(=O)CSc1nncn1C | ? | .
O=C(NCc1ccco1)c1cnn2c1NC(c1ccc(Br)cc1)CC2C(F)(F)F (configuration not stated) | ? | .
O=S(=O)(NC1CC2CCC1C2)c1ccc(Br)s1 (configuration not stated) | -28% | >57
Cn1c(=O)c2cc(S(=O)(=O)NC(C(=O)NCc3cccnc3)c3ccccc3)ccc2n(C)c1=O (configuration not stated) | -7% | >57
O=C(O)c1ccc(NS(=O)(=O)/C=C/c2ccccc2)cc1O | 12% | >57
CCCCCCN(CCCCCC)C(=O)Cc1c(-c2ccc(Cl)cc2)[nH]c2ccc(Cl)cc12 | -24% | >57
Cc1cc(NC(=O)CCC2CCCC2)no1 | 9% | >57
O=C(O)c1ccc(NCc2nc3cc4ccccc4cc3[nH]2)cc1 | -10%[8 µM] | >57
C1CCC(OCCN2CCN(CCOC3CCCCC3)CC2)CC1 | -2% | >57
CCN1CCCC1CNC(=O)CSc1cc(=O)n(C)c2cc(Cl)ccc12 (configuration not stated) | -7% | >57
O=C(c1cccc2ccccc12)N1CCN(CC2CC=CCC2)CC1 (configuration not stated) | -6% | >57
CC(=O)Nc1ccc(S(=O)(=O)N2CCC(NC(=O)C(Cc3cccn3C)NC(C)=O)CC2)cc1 (configuration not stated) | -5% | >57
CCn1nnnc1SCC(=O)Nc1ccc(OCc2ccccc2)cc1 | 0% | >57
CCc1ccc(NC(=O)CCn2c(=O)oc3ccccc32)cc1 | -11% | >57
Oc1ccccc1C1=Nc2nc3ccccc3n2C(c2ccccc2)C1 (configuration not stated) | . | >57
O=C(O)COc1ccc(Cl)cc1CO | -4% | >57
FC(F)(F)c1ccccc1-c1nccc(NCc2cccs2)n1 | 3% | >57
O=C(c1cc2ccccn2n1)N1CCCC1 | 5% | >57
CCC(=O)Nc1cccc(NC(=O)CSc2nnc(C(C)C)n2CC)c1 | -9% | >57
CSc1nc2ccccc2n1CC(=O)Nc1ccccc1 | 16µM* | .
Cc1ccc(-c2noc(CNCCCN(C)C)n2)cc1 | 8% | >57
O=c1c2ccccc2[nH]c(=S)n1-c1ccc2c(c1)OCO2 | ? | >57
Cc1noc(/C=C/N(C)C)c1S(=O)(=O)N1CCCC(C(=O)NCCC2=CCCCC2)C1 (configuration not stated) | -11% | >57
O=P1(O)C=C(c2ccccc2)NC(c2ccccc2)=C1 | 7% | >57
O=C(O)CCCC(=O)Nc1cccc(C(F)(F)F)c1 | -6% | .
O=C1c2ccncc2C(=O)N1CO | -19% | >57
CN1CCN(c2ccccc2NC(=O)c2cc(Br)ccc2Cl)CC1 | ? | >57
Cn1c(=O)c2c(nc(CN3CCC(C(N)=O)CC3)n2CCc2ccccc2)n(C)c1=O | 6% | >57
CC(C)C[C@@H](CC(=O)N[C@H](CC(=O)N[C@@H]1CCCC[C@H]1C(=O)N[C@H](CC(=O)N[C@@H](CCC(=O)O)CC(=O)O)Cc1ccccc1)C(C)C)NC(=O)[C@@H]1CNCC[C@H]1N | -24% | >57
CCC(=O)OCCn1c(=O)c2cc3c(=O)n(CCOC(=O)CC)c(=O)c3cc2c1=O | -2% | .
N#CC(C(=O)NCc1ccco1)c1nc2ccccc2nc1N1CCOCC1 (configuration not stated) | ? | >57
COC(=O)c1ccccc1NC(=O)C1CCCCC1C(=O)O (configuration not stated) | -13% | >57
CC1(C)SC2c3ccccc3C(=O)N2[C@@H]1C(=O)NCc1ccco1 (some centres not stated) | -11% | >57
CCC1CCCCN1CCCNC(=O)COc1cc(=O)n(C)c2ccccc12 (configuration not stated) | 10% | >57
COc1ccccc1OCc1nc2ccccc2[nH]1 | 5% | >57

Exported with each value named: part of the list above.
CN1CCN(c2ccccc2NC(=O)c2cc(Br)ccc2Cl)CC1
  LT uptake inh: ? | Prx2 Sm inh: >57

Cn1c(=O)c2c(nc(CN3CCC(C(N)=O)CC3)n2CCc2ccccc2)n(C)c1=O
  LT uptake inh: 6% | Prx2 Sm inh: >57

Only part of the results is shown (hit frequency here may not be typical).
